Source: PubChem
AID504770 = growth inhibition of E. coli YBA685, primary screen, V. cholerae RctB inhibitors; z-score (concentration not given with the values); E. coli YBA685 rctB-dependent plasmid, OD600 growth, 3 h; stronger effect = lower value; hit rate 0.27% among 130,000;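 active means z-score under -2 on both plates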;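 further: wells of about 30 µL received 100 nL stock; score is relative to mean and SD of the test wells; the first replicate is given; strong numbers were not always called active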
CapD inh = Bacillus anthracis CapD inhibitors, primary screen, biochemical, fluorescence intensity; hit rate 0.23% among 140,000; z-score (no concentration beside the values); purified CapD enzyme, fluorescence intensity read-out; stronger effect = lower value; some hits fall short of the stated cut; CapD gamma-glutamyltranspeptidase (Bacillus anthracis Ames Ancestor);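 active means z-score under -4 in either of two replicates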;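 further: stock transfer was 100 nL into about 40 µL; score is relative to mean and spread of the plate; one replicate is shown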
* hit, by the source's call; i = inactive; nt = not tested or not shown; & = joins results of further samples. Not all compounds are listed; rates above refer to the full screens.

Order of results: AID504770 | CapD inh
> CCCN1C(=O)C(NC(C)=O)c2cc(C)ccc21 (centres undefined)
→ -0.2 | nt
> O=C(c1cn(CCOc2ccccc2)c2ccccc12)C1CC1
→ 0.2 | 0.065
> Brc1ccc2nc(CSc3nnc4ccccn34)cn2c1
→ 1.3 | 0.3
> O=C(NCCC1=CCCCC1)Nc1noc2c1COc1ccccc1-2
→ 0.4 | -0.1
> Cn1c2ccccc2c2cc(C(=O)NNC(=O)Cc3cccs3)sc21
→ nt | 4
> COc1ccc(NC(=O)CN2C(=O)/C(=C/c3cc(OC)c(OC)c(OC)c3)SC2=S)cc1
→ nt | -0.14
> CCOC(=O)C(CC)n1cnc2c(nnn2-c2cccc(Cl)c2)c1=O (centres undefined)
→ -0.75 | -0.46
> O=C(CSc1nc2cc(C(=O)NCC3CCCO3)ccc2c(=O)n1CC1CCCO1)Nc1nccs1 (centres undefined)
→ nt | 0.58
> CN(C)c1ccc(Nc2nc3ccccc3nc2NS(=O)(=O)c2cccs2)cc1
→ 0.25 | nt
> COc1ccc(C2CC(=O)C(C=NC3CCCC3)=C(O)C2)cc1 (centres undefined)
→ -0.9 | nt

(continued)
Order of results: AID504770 | CapD inh
> Fc1ccc(-c2cn3cccc(OCc4ccc(Cl)c(Cl)c4)c3n2)cc1
→ 1.8 | 3.1
> O=C1CC(c2cccc3ccccc23)C2=C(CCCC2=O)N1 (centres undefined)
→ -0.3 | -0.25
> CCN(CC)S(=O)(=O)c1ccc(N2C(=O)Nc3ccccc3N2O)cc1
→ -0.15 | -0.8
> COc1cc(/C=C2\C(=O)N(c3ccc(S(N)(=O)=O)cc3)N=C2C)cc(Cl)c1OCc1ccccc1
→ nt | 0.33
> Cc1cc(C)nc(N2CCC(C(O)(c3ccccc3)c3ccccc3)CC2)n1
→ 0.25 | nt
> c1ccc(-c2nsc(NC3Cc4ccccc4C3)n2)cc1
→ -0.1 | 0.37
> Cc1ccc(C(=O)OCc2ccc(C#N)cc2)c(O)c1
→ 1.5 | nt
> Cc1c(N=CC(O)CN2CC3CC(C2)c2cccc(=O)n2C3)c(=O)n(-c2ccccc2)n1C (centres undefined)
→ -0.2 | -1.1
> CC(NC(=O)c1cc(=O)[nH]c2ccc(S(=O)(=O)N3CCOCC3)cc12)C12CC3CC(CC(C3)C1)C2 (centres undefined)
→ -0.2 | nt
> COCCN1C(=O)c2ccccc2C(C(=O)N2CCN(c3ccccc3)CC2)C1c1c[nH]c2ccccc12 (centres undefined)
→ -0.05 | -0.14

Entries of single compounds as entered above:
Cc1ccc(C(=O)OCc2ccc(C#N)cc2)c(O)c1 as listed: AID504770: 1.5; CapD inh: nt
CCN(CC)S(=O)(=O)c1ccc(N2C(=O)Nc3ccccc3N2O)cc1 as listed: AID504770: -0.15; CapD inh: -0.8

Part of the list above, in CSV form.
molecule,AID504770,CapD inh
COc1cc(/C=C2\C(=O)N(c3ccc(S(N)(=O)=O)cc3)N=C2C)cc(Cl)c1OCc1ccccc1,nt,0.33
Cc1cc(C)nc(N2CCC(C(O)(c3ccccc3)c3ccccc3)CC2)n1,0.25,nt

Remaining list, next part:
Order of results: AID504770 | CapD inh
> COc1ccc(OC)c(C2NC(=S)NC(C)=C2C(=O)Nc2ccccc2)c1 (centres undefined)
→ nt | 0.005
> CCCC(C)C(=O)Nc1ccc(S(N)(=O)=O)cc1 (centres undefined)
→ -0.1 | 0.09
> COc1cc(C2C(C#N)=C(N)OC3=C2C(=O)CC(C)(C)C3)cc(OC)c1OC(C)=O (centres undefined)
→ nt | -0.61
> CC(C)(C)c1ccccc1NC(=O)c1cccc(Cn2cc(Cl)cn2)c1
→ -0.35 | 0.34
> CC(C)=NNS(=O)(=O)c1ccc(N2CCCC2=O)cc1
→ -0.05 | nt
> CCOC(=O)c1c(NC(=O)/C=C\C(=O)O)sc(C)c1-c1ccccc1
→ -0.5 | -1.7
> CCCCC(=O)N1c2ccccc2C(Nc2ccccc2)CC1C (centres undefined)
→ 0.1 | 0.13
> COc1ccc(-c2ccc(/C=C3\C(=O)N(c4cccc(Br)c4)N=C3C)o2)c([N+](=O)[O-])c1
→ nt | 0.46
> COc1ccc(NC(c2ccccn2)c2oc(CO)cc(=O)c2O)cc1 (centres undefined)
→ -1.4 | -1.4
> Cc1cc(=O)oc2c1ccc1occ(Nc3cccc4ccccc34)c12
→ nt | -0.77

(continued)
Order of results: AID504770 | CapD inh
> Cc1cc(C)c(C#N)c(OC(=O)c2ccccc2Cl)n1
→ nt | 46
> O=C(CN1CCC2(CC1)OCCO2)Nc1ccccc1
→ 0.8 | 0.82
> C=CCc1ccc(OCCOCCN2CCN(C)CC2)c(OC)c1
→ -0.5 | nt
> COc1ccccc1NC(=O)Nc1ccnn1C1CCCCC1
→ -0.4 | nt
> Cn1c(=O)[nH]c(=O)c2[nH]c(NCCO)nc21
→ -0.3 | nt
> O=c1c2ccccc2nc(-c2ccc(F)cc2)n1NCc1ccccc1O
→ -0.05 | 0.43
> Cc1cccn2c(N)c(-c3ccccc3)nc12
→ -0.2 | nt
> COc1ccccc1CN(C)C(=O)c1cc(C)nc2ccccc12
→ -0.1 | nt
> COc1ccc(C2C(=O)N(CCc3ccccc3)CC(=O)N2Cc2ccc3c(c2)OCO3)cc1 (centres undefined)
→ -1.5 | -1.6
> C=CCNC(=O)COc1cccc2c(=O)n(CC)ccc12
→ 0.1 | nt

Remaining list, next part:
Order of results: AID504770 | CapD inh
> CCC(=O)N(c1ccc2[nH]c(C(C)(C)C)cc2c1)C1CCN(C(C)=O)CC1
→ nt | 0.3
> COc1ccccc1C(=O)Nc1ccc(S(C)(=O)=O)cc1
→ -0.2 | nt
> COc1ccccc1N1CCN(Cc2ccc(C)cc2)CC1
→ 0.65 | 1
> Clc1ccc2[nH]c3c(c2c1)CN(Cc1ccccc1)CC3
→ nt | 0.51
> Nc1ccc(S(=O)(=O)Nc2ccccn2)cc1
→ 0.6 | -0.39&-0.56
> O=C(NC1CCN2CCCc3cccc1c32)c1ccccc1 (centres undefined)
→ nt | 0.67
> COc1ccc(OCCn2c(NC(=O)c3ccccc3Cl)nc3ccccc32)cc1
→ 0.5 | -0.06
> Cc1c(C(C)(C)C)s/c(=N\S(=O)(=O)c2ccc(Cl)cc2)n1C
→ -0.65 | nt
> CCC(=O)N1CCc2cc(Br)cc(S(=O)(=O)NCc3ccccc3OC)c21
→ 0 | -0.025
> COc1ccc(C(C(=O)NC2CCCC2)N(C(=O)c2ccn[nH]2)c2ccc(F)cc2)cc1OC (centres undefined)
→ 0.6 | 0.47

(next part)
Order of results: AID504770 | CapD inh
> N#Cc1c(N)n[nH]c1CCCNC(=O)c1oc2ccccc2c1CSc1ccc(Cl)cc1
→ -0.05 | nt
> CCn1c(CCc2ccccc2)nnc1SCC(N)=O
→ -0.85 | 0.54
> COc1ccc(CCC(=O)Nc2nc3ccccc3[nH]2)cc1OC
→ 1.1 | nt
> O=C(CSc1nc2ccccc2c(=O)[nH]1)NCCO
→ 0.4 | 0.5
> c1nncn1N=C1CCCCC1
→ -0.95 | -0.06
> Cc1cc(COC(=O)N2CCC3(CC2)C(=O)NCN3c2ccccc2)no1
→ nt | 0.06
> CC(=O)N1C(C)(C)CC(=NOS(=O)(=O)c2ccc(Cl)cc2)CC1(C)C
→ nt | 0.15
> CCCn1c(N)c(NCCN2CCOCC2)c(=O)n(CC(=O)NCc2ccccc2)c1=O
→ -0.2 | nt
> CCC(=O)c1ccccc1OCC(=O)Nc1c(F)c(F)c(F)c(F)c1F
→ -0.35 | 0.4
> O=C(CSc1n[nH]c(-c2ccncc2)n1)c1ccc(F)cc1
→ nt | -0.69

(list continues)
Order of results: AID504770 | CapD inh
> Cc1cc(C)nc(NS(=O)(=O)c2ccc(Nc3nc(-c4c(C)nc5sccn45)cs3)cc2)n1
→ nt | 0.69
> c1ccn2c(c1)nc1c2nc2ccccn21
→ -0.55 | 65
> O=C1c2ccccc2S(=O)(=O)N1CCCCN1C(=O)c2ccccc2S1(=O)=O
→ -0.3 | 0.13
> Cc1ccc(-n2cnc3ccccc32)cc1
→ -0.6 | 0.08
> CCOC(=O)N1CC=C2C(C1)C(c1cccc(C(F)(F)F)c1)C(C#N)=C(N)C2(C#N)C#N (centres undefined)
→ -0.6 | 1
> Cc1nc2nc[nH]n2c(=O)c1NS(C)(=O)=O
→ -0.6 | -0.34
> Cn1c(=O)oc2cc(S(=O)(=O)NC(Cc3ccccc3)C(=O)NCc3ccco3)ccc21 (centres undefined)
→ 0.05 | -0.26
> Cc1ccccc1-n1nc2c(c1NC(=O)c1ccc(S(=O)(=O)N3CCCCC3)cc1)CS(=O)(=O)C2
→ nt | -0.51
> CC(C)n1c(NCc2cccs2)nc2ccccc21
→ -0.95 | -0.46
> CSc1nnc(-c2sccc2OCc2cccc(C(F)(F)F)c2)n1C
→ nt | 0.42

(listing goes on)
Order of results: AID504770 | CapD inh
> O=C(NN1CCN(c2ccccc2)CC1)c1cc(Cl)sc1Cl
→ -0.55 | nt
> Cn1cc(/C=N/NC(=O)C(Cc2cnc[nH]2)NC(=O)OC(C)(C)C)c2ccccc21 (centres undefined)
→ nt | -2.2
> COC(=O)c1cccc(-c2ccc(/C=C3\C(=O)N(c4ccc(C)c(Cl)c4)N=C3C)o2)c1
→ nt | -0.2
> COc1ccc(-c2cc(C(=O)N3CCC(C(N)=O)CC3)c3ccccc3n2)cc1
→ 1.8 | 39
> O=C1c2ccccc2C(Nc2ccccc2)N1c1cccnc1 (centres undefined)
→ 0.65 | -1.2
> O=C(NCCc1ccc(Cl)cc1)c1cc2c(=O)[nH]c3ccccc3c2s1
→ -0.45 | 0.74
> COc1ccc(CCNC(=O)COc2cccc3c2CCN(Cc2cccnc2)C3=O)cc1OC
→ -0.1 | nt
> C[n+]1c(/C=C/Nc2ccccc2)sc2ccccc21
→ 1.4 | -4.4*
> CCOC(=O)c1c(NC(=O)COc2ccc(Cl)cc2)sc(C(=O)Nc2ccc(C)c(Cl)c2)c1C
→ nt | -0.23
> COC(=O)c1ccccc1-c1ccc(-c2nc3sc4c(c3c(=O)[nH]2)CCCC4)o1
→ 1.6 | 0.53

Next section.
Order of results: AID504770 | CapD inh
> CC1CC(=O)c2cnc(N3CC(C)CC(C)C3)nc2C1 (centres undefined)
→ 1.2 | 1.1
> O=C(Oc1ccc2c(c1)OCO2)N1CCOCC1
→ -0.9 | -0.32
> N#Cc1c(N)cc(N)nc1SCc1ccc(Cl)c(Cl)c1
→ 0.3 | nt
> NNC(=O)c1cncc(Br)c1
→ nt | 0.95
> O=C(O/N=C/c1ccc2c(c1)OCO2)c1cccs1
→ nt | 0.14
> NNC(=O)COc1ccc(OC(F)(F)F)cc1
→ nt | 0.12
> COc1ccccc1NC(=O)C1=C(C)NC(SCC(=O)Nc2ccccc2)=C(C#N)C1c1ccccc1 (centres undefined)
→ nt | -0.81
> CN(C)/C=N/c1ncnc2c1cnn2-c1ccccc1
→ -0.5 | nt
> COc1ccc(N2C(=O)CSC23C(=O)Nc2ccccc23)cc1Cl (centres undefined)
→ nt | 0.055
> COc1ccc(-c2nc(-c3cc(OC)ccc3OC)[nH]c2-c2ccc(OC)cc2)cc1
→ nt | -0.28

Part of the list above in order of molecular weight, highest first.
Order of results: AID504770 | CapD inh
> COc1ccccc1NC(=O)C1=C(C)NC(SCC(=O)Nc2ccccc2)=C(C#N)C1c1ccccc1 (centres undefined)
→ nt | -0.81
> COc1ccc(-c2nc(-c3cc(OC)ccc3OC)[nH]c2-c2ccc(OC)cc2)cc1
→ nt | -0.28
> NNC(=O)COc1ccc(OC(F)(F)F)cc1
→ nt | 0.12

Other results follow:
Order of results: AID504770 | CapD inh
> O=C(NC(C(=O)O)C12CC3CC(CC(C3)C1)C2)c1ccccc1 (centres undefined)
→ -0.95 | i
> CCOC(=O)C1=C(C)NC2=C(C(=O)C(C(=O)OCC)C(c3cccc(OC)c3)C2)C1c1ccccc1Cl (centres undefined)
→ nt | 22
> O=C(Nc1ccc2sccc2c1)C1CC1
→ -1.1 | -0.08
> CCOC(=O)C1CCN(S(=O)(=O)c2ccc(-c3cc(C(F)(F)F)no3)s2)CC1
→ 0.95 | -0.47
> COc1cc(C(=O)Nc2ccc3oc(-c4ccc(Br)cc4)nc3c2)cc(OC)c1OC
→ nt | 6.8
> O=c1c2sc(=S)n(Cc3ccco3)c2nc(SCc2cc(=O)n3cc(Cl)ccc3n2)n1-c1ccccc1
→ nt | 1.2
> O=c1cc(CCl)nc2nc[nH]n12
→ -0.95 | -0.79
> COc1ccccc1CNC(=O)c1sc2nc(C)nc(N3CCCCC3C)c2c1C (centres undefined)
→ nt | 0.07
> COC(=O)C1=C(C(=O)OC)SC2(S1)C(C(=O)OC)=C(C(=O)OC)SC1=C2c2cc(C)ccc2N(C(=O)Cc2ccccc2)C1(C)C
→ nt | -0.14
> COc1cc(C(=O)NN2CCOCC2)nc(OC)n1
→ nt | -0.9

More records follow:
Order of results: AID504770 | CapD inh
> CC1=C(C(=O)OCCSc2ccccc2)C(c2ccc3c(c2)OCO3)NC(=O)N1 (centres undefined)
→ nt | -0.04
> O=C(COc1ccc(Cl)cc1Cl)NC1CCS(=O)(=O)C1 (centres undefined)
→ -1.3 | -0.19
> CCOC(=O)c1c(NC(=O)C(C)Sc2nnc(CNC(=O)c3ccco3)n2C2CCCCC2)sc2c1CCCCC2 (centres undefined)
→ nt | 0.14
> COc1ccc2c(c1)CCc1c(C(=O)N(C)c3ccccc3)noc1-2
→ 1.4 | -0.18
> CCS(=O)CCSc1nc(-c2cccs2)cc(-c2ccccc2)c1C#N (centres undefined)
→ nt | 3
> CCOC(=O)c1ccccc1NC(=O)c1cc2ccccc2o1
→ 0.15 | 0.84
> Cc1ccnc(NC(=O)CCC(=O)O)c1
→ 1.6 | -0.055
> O=C(/C=C/c1ccco1)Nc1ccc(N2CCOCC2)cc1
→ 0.1 | nt
> CC(C)(C)c1ccc(Cn2c(=N)n(CC(O)c3ccco3)c3ccccc32)cc1 (centres undefined)
→ 0.55 | nt
> O=C(Nc1ccc(C(=O)N2CCCc3ccccc32)cc1)c1ccco1
→ -0.65 | -0.77
> Cc1c(C(=O)NCCN2CCOCC2)sc2nc(-c3ccc(F)cc3)cn12
→ 0.75 | nt
